# Compound activity from PubChem.
# Sa RN4220 lethal: S. aureus RN4220 growth inhibition; hit rate 0.33% among 330,000; OD600, 16 h; inhibition, % (concentration not given with the values); AID 1259311;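 active = z-score of -3 or lower and OD600 up to 0.18 on both plates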;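 also: plate controls were untreated cells for no effect and reference antibiotic for full effect; stock transfer was 100 nL into about 80 µL; one replicate is shown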
# Mtb hypoxia rep: inhibitors of hypoxia-regulated fluorescent reporter in Mycobacterium tuberculosis | M. tuberculosis hypoxia-regulated fluorescent reporter, fluorescence | fluorescence inhibition, % (test concentration not listed) | hit rate 0.1% among 300,000 | AID 1159583;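 active = 35 to 45% if threefold the growth effect, above 45% if 1.5-fold the growth effect; inactive = the rest, general growth blockers included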;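 also: wells of about 50 µL received 100 nL stock; 0% = vehicle wells and 100% = reference inhibitor wells; whole bacteria with a GFP reporter of the hypoxia response; strong numbers were not always called active; many hits fall short of the cut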
# Autofluor counter: flagged as autofluorescent in microsphere protease counterscreen; fluorescence intensity (no concentration beside the values); hit rate 3.1% among 360,000; compound autofluorescence counterscreen, microsphere flow cytometry; hits give high values;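 active = at least 3 SD above the mean of all compounds, about 16000 in these data; inconclusive = too few beads counted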;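 also: 100 nL of 1 mM stock went into each well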
# ugtP null kill: compounds lethal to S. aureus RN4220 ugtP deletion mutant | growth inhibition, % (concentration not given with the values) | OD600 growth, 16 h; some inactives read as strong as hits | hit rate 0.54% among 330,000 | AID 1259309;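 active = z-score under -3 and OD600 up to 0.15 on both plates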;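 also: plate controls were untreated wells for no effect and antibiotic for full effect; wells of about 80 µL received 100 nL stock; the first replicate is given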
# PrP UTR inh: suppresses PrP 5' UTR mRNA reporter expression | cell-based PrP 5' UTR mRNA reporter, plate reader | inhibition, % (no concentration beside the values) | hit rate 0.35% among 340,000 | AID 488862;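 active = every replicate at 50% or more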;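 also: 0 = median of the neutral control wells; tested in H4 reporter cells; numbers are from one replicate; inactives centre near -14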
# BJeLR lethal: BJeLR cell viability loss; AID 1554; hit rate 0.17% among 300,000; inhibition, % (test concentration not listed); BJeLR (HRASV12) viability, CellTiter-Glo ATP luminescence, 48 h; reference of the scale not given here;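 active = replicate mean above 50%; inconclusive = above 50% but judged a plate artefact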;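 also: 50 nL library stock added to about 25 µL; numbers are from one replicate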
# Mtb hypoxia rep growth: further read-out of Mtb hypoxia rep, marked with its call; growth inhibition, %; measured here: M. tuberculosis growth (absorbance);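 0% = vehicle and 100% = reference antibiotic; read after six days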
# The depositor's hits bear a star; ? = inconclusive; · = no result given.
# Below each SMILES: Sa RN4220 lethal, Mtb hypoxia rep, Mtb hypoxia rep growth, Autofluor counter, ugtP null kill, PrP UTR inh, BJeLR lethal
- COc1cccc(C2=CC(c3cccs3)n3nnnc3N2)c1 (configuration not stated)
    4.3, 7, 26, 4158, -7, -14, 21
- COc1ccc(-c2cc(C)no2)cc1S(=O)(=O)N(C)c1ccc(C)c(C)c1
    7.8, 9, 2, 4695, 14, 4, 0
- CCc1ccc2[nH]c(=O)c(CN(CC3CCCO3)C(=S)NCc3ccco3)cc2c1 (configuration not stated)
    2.9, 12, 7, 6168, 3, -15, 2
- COc1ccc(CNC(=O)Cn2ccc(N)nc2=O)cc1
    3.9, 10, 11, 2879, -2, -25, ·
- COc1ccc(CC(=O)OCC(=O)NC2CCCCC2)cc1OC
    -0.4, 13, 4, 3887, 2, -14, ·
- Cc1nnnn1CC(=O)Nc1ccccc1[N+](=O)[O-]
    5.3, 5, 11, 2561, 4, -34, -8
- COc1ccc(CCNC(=O)c2cccc(NC3=NC4CS(=O)(=O)CC4S3)c2)c(OC)c1 (configuration not stated)
    -0.1, ·, ·, 6083, -2, -35, 4
- O=C(COC(=O)c1cc(Cl)ccc1[N+](=O)[O-])Nc1cccc2ccccc12
    6.4, 7, 10, 2470, 1, -20, -1
- Cc1cc(C(=O)OCC(=O)NCCc2ccccc2)c2ccccc2n1
    1.9, 13, 9, ·, 10, -15, ·
- COc1ccccc1OCc1nc(C#N)c(N2CC(C)CC(C)C2)o1 (configuration not stated)
    ·, ·, ·, 5886, ·, -14, 7
- COC(=O)/C=C1\C(=O)N(c2nc3ccc(OC)cc3s2)C(=S)N1c1ccc(F)cc1
    1.1, 3, 1, ·, 3, ·, 0
- CC1CCc2c(sc3nc4n(c(=O)c23)CCS4)C1 (configuration not stated)
    6.7, 11, 11, 8314, 4, -24, -7
- CCCCOCCCNS(=O)(=O)Cc1ccccc1
    0.0, 0, -7, 7072, 4, -5, -5
- COCCN(C(=O)COc1ccc(Cl)cc1)c1nnc(-c2cccnc2)s1
    -8.1, 17, 10, 2602, -3, -2, 5
- CC(C)C1(C)C(=O)N=C2c3ccccc3C(=O)N21 (configuration not stated)
    0.3, ·, ·, 3495, 6, -12, -2
- CCOC(=O)c1sc(NC(=O)CSc2nnc(-c3ccc(OC)cc3)n2CCOC)nc1C
    8.7, 9, 1, 22333*, 17, -9, 1
- COc1ccc(-n2c(SCC(=O)NCc3ccco3)nnc2-c2c[nH]c3ccccc23)cc1
    2.1, 6, -2, 6303, 4, -27, 4
- Clc1ccc(-c2cn(-c3ccccc3)c3[n+]2CCS3)cc1
    6.4, 4, -1, 4257, 13, -20, 10
- COc1ccc(/C=C/C(=O)O)cc1S(=O)(=O)N1CCCCC1
    4.5, 0, -1, 4344, 3, -5, 12
- CCOc1ccc(NC(=O)CC2Nc3ccccc3NC2=O)cc1 (configuration not stated)
    4.8, 6, 3, 4640, 4, -29, -10
- COc1ccc(Cl)cc1NC(=O)C(C)N(C)Cc1cccc(Cl)c1Cl (configuration not stated)
    1.1, 10, 10, 2429, 7, -8, -6
- CC(C)(C)NC(=O)NC(=O)CN1CCCCCCC1
    4.1, 0, 5, 3566, -4, -20, 1
- Clc1ccccc1C=NNc1cc(N2CCOCC2)ncn1
    2.1, 13, 5, ·, 1, ·, ·
- CCOc1ccccc1NC(=O)CCS(=O)(=O)c1cccs1
    5.3, -4, -2, 4082, 6, -3, 4
- CNC(=S)N/N=C/c1cn(CCOc2ccccc2OC)c2ccccc12
    ·, ·, ·, 2063, ·, -12, -16
- O=S1(=O)CCN=C2SC3=C(CCCC3)N21
    6.3, -3, 11, 7054, 4, -25, -8
- Cc1ccccc1N(C(=O)CCCC(=O)Nc1ccccn1)C(C(=O)NC1CCCC1)c1ccc(O)cc1 (configuration not stated)
    -0.6, -2, 12, 3761, 5, -24, -4
- CC1(C)C(=O)Nc2ccccc2N1C(=O)COc1ncnc2ccccc12
    1.1, -4, 1, 4406, -1, -1, -1
- CC(=O)Nc1ccc(Br)c(Cl)c1
    2.0, 4, -1, ?, 2, -28, 1
- O=C(/C(=C/c1ccncc1)n1ccnc1)c1ccc(Cl)cc1Cl
    -1.8, 6, -9, ·, -10, ·, ·

# Single entries from above.
# PrP UTR inh, COCCN(C(=O)COc1ccc(Cl)cc1)c1nnc(-c2cccnc2)s1 reads -2
# Autofluor counter, CC(C)(C)NC(=O)NC(=O)CN1CCCCCCC1 reads 3566
# Sa RN4220 lethal, CCCCOCCCNS(=O)(=O)Cc1ccccc1 reads 0.0

# The list continues:
# Below each SMILES: Sa RN4220 lethal, Mtb hypoxia rep, Mtb hypoxia rep growth, Autofluor counter, ugtP null kill, PrP UTR inh, BJeLR lethal
- O=C(Cn1ncn2c(cc3ccccc32)c1=O)NCCC1=CCCCC1
    -4.5, -3, -5, 9688, 9, -5, 6
- CC(=O)c1cccc(S(=O)(=O)Nc2ccc3nc(C)sc3c2)c1
    9.9, 6, 1, 3745, 9, -19, 3
- O=C(c1ccc2nc[nH]c2c1)N1CCN(c2cccc(Cl)c2)CC1
    3.7, 14, 6, 5445, -1, -20, 2
- COC(=O)C1=C(C)NC(C)=C(C(=O)OC(C)C)C1c1cccc2nonc12 (configuration not stated)
    ·, ·, ·, 4331, ·, 43, 2
- O=C(COC(=O)c1ncc(Cl)c(Cl)c1Cl)NCc1ccccc1
    5.7, -3, -2, 6516, 6, -18, ·
- COc1ccc(-c2cn3nc(C)c(C)nc3n2)cc1OC
    1.4, -2, -7, 3252, -3, -39, ·
- COC(C(=O)Nc1ccc(S(=O)(=O)Nc2cccc3ccccc23)cc1)c1ccccc1 (configuration not stated)
    -5.0, 4, 5, 2850, -8, -14, 2
- O=C(/C=C/c1ccc(O)c([N+](=O)[O-])c1)c1ccc2ccccc2c1
    13, 3, 11, 6043, 16, -30, 3
- CC(=O)N1CCc2cc(S(=O)(=O)NCC(=O)NCc3ccc(F)cc3)ccc21
    2.2, -4, -9, 4491, 6, -2, 1
- O=C(Nc1ccc(N2CCOCC2)c(Cl)c1)c1ccccc1F
    2.6, 2, 0, 8108, 1, -96, -16
- CCOC(=O)C(C(C)C)C(N)Cc1ccc(F)cc1 (configuration not stated)
    -1.3, -9, 9, 2154, -2, -17, -3
- COc1cccc(NC(=O)C(Sc2nnc3ccccn23)c2ccccc2)c1 (configuration not stated)
    0.3, 0, -4, 2152, 7, -27, -5
- Cn1cc(C(=O)OCC(=O)NC2(C#N)CCCC2)c2ccccc21
    5.0, 12, 8, 3586, 1, -18, ·
- Cc1sc(NC(=O)c2ccco2)c(C(c2ccc(F)cc2)N2CCN(C)CC2)c1C (configuration not stated)
    2.6, 7, 5, 3435, -2, -7, 6
- COC(=O)[C@H]1[C@H](CCc2ccccc2)NC(=O)N(Cc2ccccc2)[C@@H]1C
    ·, ·, ·, 3018, ·, -9, -3
- COCc1nnc(NC(=O)c2ccc(NC(C)=O)cc2)s1
    9.0, 15, 10, 4401, -26, -21, -5
- N=c1c(C(=O)NC2CCCC2)cc2c(=O)n3ccccc3nc2n1CC1CCCO1 (configuration not stated)
    2.2, 2, -2, 4355, -2, -31, 6
- Cc1cc2ncn(S(=O)(=O)c3ccc(S(N)(=O)=O)cc3)c2cc1C
    1.9, -2, 5, 3804, 0, -17, ·
- CN(C)S(=O)(=O)c1cccc(NC(=O)c2ccc3c(c2)OCCO3)c1
    1.1, -14, 1, 6219, -3, -60, 5
- CCOC(=O)C1CCCN(c2nc3ccccc3nc2C(C#N)C(=O)OCCOC)C1 (configuration not stated)
    1.8, ·, ·, 2797, 5, -20, -12
- Cc1cccc2c1NC1(CCCC1)CC2C (configuration not stated)
    3.7, 5, 7, 4778, 6, ·, 1
- COc1ccc(/C=N/NC(=O)C(=O)N2CCCC2)cc1
    ·, ·, ·, 4728, ·, -35, 2
- O=S(=O)(Nc1cc(Cl)ccc1-n1cncn1)c1ccccc1Cl
    6.6, 9, 5, 6799, 0, -3, ·
- CCc1[nH]nc2c1C(c1ccncc1)C(C#N)=C(N)O2 (configuration not stated)
    -6.1, -11, -5, 11316, -7, -30, -5
- Cc1ccc(CNC(=O)CCS(=O)(=O)c2ccc3nc(C)sc3c2)cc1
    -15, 9, 13, 6163, -3, -19, -1
- COC(=O)c1cc(NC(=O)c2c(C)noc2C)ccc1N1CCOCC1
    4.5, 8, 2, 5327, -5, -21, 14
- CCOC(=O)C1(CCCc2ccccc2)CCN(Cc2cn(CC)nc2C)CC1
    2.0, 7, 6, 3636, 7, -25, 7
- COc1cc(OC)c(OC)cc1CNCc1ccc2c(c1)OCO2
    2.3, 6, 11, 3951, 3, -21, 3
- CC(=O)N1CCN(CC(=O)O)CC1
    2.0, -1, -4, ·, 4, ·, -6
- O=C1N/C(=N/N=C/c2ccco2)SC1Cc1ccccc1 (configuration not stated)
    ·, ·, ·, 4496, ·, -15, -4

# Below each SMILES: Sa RN4220 lethal, Mtb hypoxia rep, Mtb hypoxia rep growth, Autofluor counter, ugtP null kill, PrP UTR inh, BJeLR lethal
- CCCCNC(=O)Oc1ccc(C(=O)N2c3ccccc3NC(=O)C2C)cc1 (configuration not stated)
    5.7, ·, ·, 3821, 11, -29, 6
- C#CCOCCOCCOCCNc1nc(N2CCN(C(=O)C(Cc3ccc(O)cc3)n3cc(CCO)nn3)CC2)nc(N2CCN(C(=O)C(C(C)C)n3cc(CCO)nn3)CC2)n1 (configuration not stated)
    7.7, 5, 5, ·, 4, ·, ·
- Cc1cccc(NC(=S)N/N=C/c2ccc3c(c2)OCO3)c1
    ·, ·, ·, 2516, ·, -36, 5
- Cc1cc(NC(=O)CSc2nnc(Cc3cccn3C)n2CCc2ccccc2)no1
    2.2, 13, 8, 6269, 7, -23, ·
- O=C(c1ccccc1)c1ccc(OCCn2cnc3ccccc3c2=O)cc1
    -5.8, ·, ·, 2890, 2, -26, -2
- CCn1c(N2CCN(C(=S)NCCc3ccccc3)CC2)nc2ccccc21
    -6.1, 16, 1, 10519, -19, -4, 13
- Cn1c(SCC(=O)NCCc2ccccc2)nnc1-c1ccncc1
    0.8, 2, 1, 3879, -2, -27, 4
- O=C(CCN1CCN(c2ccccc2)CC1)c1ccc(Br)cc1
    15, 21, 7, 3703, 23, -10, 2
- O=C(/C=C/c1ccccc1)Nn1c(-c2cccs2)nc2ccccc2c1=O
    1.2, -17, -16, 2397, 4, -1, -19
- O=C(O)c1cccc2cccnc12
    0.6, ·, ·, 4800, 4, -26, -2
- COc1ccc(OC)c(/C=N/NC(=O)CNC(=O)c2cccc3ccccc23)c1
    ·, ·, ·, 5236, ·, -15, -5
- CC(=O)c1ccc(S(=O)(=O)N2CCCCC2C(=O)O)cc1 (configuration not stated)
    1.0, 10, -9, 3286, -3, -7, 5
- COc1cc(/C=N/NC(=O)/C(=C/c2ccccc2)CCO)ccc1O
    ·, ·, ·, 8555, ·, -10, -3
- Cc1nc(-c2ccc(F)cc2)c(CC(=O)N2CCN(S(=O)(=O)c3ccc(F)cc3)CC2)s1
    0.5, 11, 1, ?, 6, -2, -7
- COC(=O)C1=C(C)NC(=O)C1(NS(=O)(=O)c1ccc(NC(C)=O)cc1)C(F)(F)F (configuration not stated)
    4.4, 7, 6, 19985*, 6, -26, -8
- Cc1ccc(S(=O)(=O)N(C)C)cc1NC(=O)COC(=O)C1COc2ccccc2O1 (configuration not stated)
    2.6, 3, 6, 3977, 11, -12, -1

# Results in Autofluor counter and Mtb hypoxia rep growth, for two of the compounds above:
canonical_smiles	Autofluor counter	Mtb hypoxia rep growth
O=C(CCN1CCN(c2ccccc2)CC1)c1ccc(Br)cc1	3703	7
O=C(/C=C/c1ccccc1)Nn1c(-c2cccs2)nc2ccccc2c1=O	2397	-16

# Among those listed so far, these have a furan ring, fused or not.
# Below each SMILES: Sa RN4220 lethal, Mtb hypoxia rep, Mtb hypoxia rep growth, Autofluor counter, ugtP null kill, PrP UTR inh, BJeLR lethal
- CCc1ccc2[nH]c(=O)c(CN(CC3CCCO3)C(=S)NCc3ccco3)cc2c1 (configuration not stated)
    2.9, 12, 7, 6168, 3, -15, 2
- COc1ccc(-n2c(SCC(=O)NCc3ccco3)nnc2-c2c[nH]c3ccccc23)cc1
    2.1, 6, -2, 6303, 4, -27, 4
- Cc1sc(NC(=O)c2ccco2)c(C(c2ccc(F)cc2)N2CCN(C)CC2)c1C (configuration not stated)
    2.6, 7, 5, 3435, -2, -7, 6
- O=C1N/C(=N/N=C/c2ccco2)SC1Cc1ccccc1 (configuration not stated)
    ·, ·, ·, 4496, ·, -15, -4
